Bead autofluor: counter-screen for toxin protease inhibitors: compound fluorescence | compound autofluorescence counterscreen, microsphere flow cytometry; stronger effect = higher value | fluorescence intensity (no concentration beside the values) | 360,000 compounds, 3.1% hits | AID 624483;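 active means at least 3 SD above the mean of all compounds, about 16000 in these data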;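 further: 100 nL of 1 mM stock went into each well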
PrP UTR inh: inhibition of PrP 5' UTR reporter expression. 340,000 compounds, 0.35% hits. inhibition, % (no concentration beside the values). cell-based PrP 5' UTR mRNA reporter, plate reader. AID 488862, 2010;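 active means every replicate at 50% or more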;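 further: 0 = median of the neutral control wells; tested in H4 reporter cells; numbers are from one replicate; inactives centre near -14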
BJeLR lethal: MLPCN primary cell-based screen for lethality selective to Ras in HRASV12 cells; AID 1554, 2009; BJeLR (HRASV12) viability, CellTiter-Glo ATP luminescence, 48 h; reference of the scale not given here; inhibition, % (test concentration not listed); 300,000 compounds, 0.17% hits;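 active means replicate mean above 50%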;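 further: 50 nL library stock added to about 25 µL; numbers are from one replicate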
ugtP null kill: growth inhibition of ugtP-null S. aureus, primary screen, RN4220 ugtP deletion, OD600; growth inhibition, % (no concentration beside the values); 330,000 compounds, 0.54% hits; 16 h; some inactives read as strong as hits;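 active means z-score under -3 and OD600 up to 0.15 on both plates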;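 further: plate controls were untreated wells for no effect and antibiotic for full effect; wells of about 80 µL received 100 nL stock; the first replicate is given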
Sa RN4220 lethal: growth inhibition of S. aureus RN4220, primary screen, OD600; 16 h; inhibition, % (no concentration beside the values); 330,000 compounds, 0.33% hits; AID 1259311, 2017;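 active means z-score of -3 or lower and OD600 up to 0.18 on both plates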;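 further: plate controls were untreated cells for no effect and reference antibiotic for full effect; stock transfer was 100 nL into about 80 µL; one replicate is shown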
Mtb hypoxia rep: PubChem AID 1159583; M. tuberculosis hypoxia-regulated fluorescent reporter, fluorescence; fluorescence inhibition, % (concentration not given with the values); 300,000 compounds, 0.1% hits;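 active means 35 to 45% if threefold the growth effect, above 45% if 1.5-fold the growth effect; inactive means the rest, general growth blockers included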;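 further: wells of about 50 µL received 100 nL stock; 0% = vehicle wells and 100% = reference inhibitor wells; whole bacteria with a GFP reporter of the hypoxia response; strong numbers were not always called active; many hits fall short of the cut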
Mtb hypoxia rep growth: recorded beside Mtb hypoxia rep, whose call it bears; growth inhibition, %; measured here: M. tuberculosis growth (absorbance);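 0% = vehicle and 100% = reference antibiotic; read after six days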
* hit, by the source's call; x = no result given.

(1) CN(C(=O)c1cccc(NC(=O)Cc2ccc(NC(=O)C3CCCN(C(=O)C4CCCC4)C3)cc2)c1)C1CCCC1 (configuration not stated)
(2) Cc1ccc(C2=NN(C(=O)CCCC(=O)O)C(c3ccco3)C2)cc1 (configuration not stated)
(3) CC1CC(=O)NN=C1c1ccc(N(C)C)c([N+](=O)[O-])c1 (configuration not stated)
(4) NC(=N\N=Cc1ccco1)/C(N)=N/N=Cc1ccco1
(5) Cc1cc(=O)[nH]c(SCc2ccc(Cl)cc2Cl)n1
Assay by compound	1	2	3	4	5
Bead autofluor	4175	5557	18577*	3496	3621
PrP UTR inh	-19	-42	-12	-19	-14
BJeLR lethal	x	1	-19	x	5
ugtP null kill	0	-3	1	0	9
Sa RN4220 lethal	-0.1	3.4	2.6	3.0	6.5
Mtb hypoxia rep	-5	12	1	7	15
Mtb hypoxia rep growth	-1	6	5	6	12

(6) Cc1cc(N2C(=O)CC(Cc3ccccc3)C2=O)no1 (configuration not stated)
(7) Cc1ccc(OCC(O)Cn2c(=N)n(CCN3CCCCC3)c3ccccc32)cc1 (configuration not stated)
(8) CC(NC(=O)C1CCCN(S(=O)(=O)c2ccc(-n3cnnn3)cc2)C1)c1ccc(F)cc1 (configuration not stated)
(9) CCCCn1nc(-c2ccccc2)c2nc3ccccc3nc21
(10) COc1ccc(/C=C(\NC(=O)c2ccc(C)cc2)C(=O)Nc2ccc(C(=O)O)cc2)cc1
Assay by compound	6	7	8	9	10
Bead autofluor	3372	24505*	6607	x	3579
PrP UTR inh	-32	-16	-17	x	-5
BJeLR lethal	-13	10	5	-3	11
ugtP null kill	1	-14	-3	6	9
Sa RN4220 lethal	0.9	0.5	-1.4	0.8	-4.7
Mtb hypoxia rep	3	x	2	-1	13
Mtb hypoxia rep growth	11	x	2	1	8

(11) O=C(COC(=O)Cn1[nH]c(=O)c2ccccc2c1=O)NNC(=O)c1ccc(Br)cc1
(12) CCCC(C(=O)Nc1ccc2c(C)cc(=O)oc2c1)c1ccccc1 (configuration not stated)
(13) Cc1ccccc1C1CC(c2cccs2)=NN1S(C)(=O)=O (configuration not stated)
(14) Cc1cc(C)cc(NC(=O)COc2coc(CN3CCc4ccccc4C3)cc2=O)c1
(15) COC(=O)c1cccnc1-n1c(=O)c2cccnc2n(Cc2cccc([N+](=O)[O-])c2)c1=O
Assay by compound	11	12	13	14	15
Bead autofluor	3428	6528	6428	x	5896
PrP UTR inh	-14	-32	-6	-3	-8
BJeLR lethal	x	16	-3	-2	7
ugtP null kill	-2	10	11	-4	x
Sa RN4220 lethal	-0.6	1.5	7.3	0.4	x
Mtb hypoxia rep	9	1	11	0	x
Mtb hypoxia rep growth	4	-4	0	2	x

(16) CCC1(c2ccccc2)NC(=O)N(Cc2cccc([N+](=O)[O-])c2)C1=O (configuration not stated)
(17) COc1ccc(C(=O)NCc2ccc(-c3nc4ccccc4s3)cc2)cc1OC
(18) CSc1nc(Oc2cccc(C(F)(F)F)c2)cc(C(F)(F)F)n1
(19) CCOc1ccccc1NC(=O)CCc1c(C)nn(-c2ccc(N3CCCCC3)nn2)c1C
(20) CCCOC(=O)CCCCC1SCC(NC(=O)OC)C1NC(=O)OC (configuration not stated)
Assay by compound	16	17	18	19	20
Bead autofluor	4897	3374	2218	6259	9790
PrP UTR inh	-4	-57	-12	-22	-18
BJeLR lethal	14	-2	2	5	-9
ugtP null kill	1	-11	32	2	1
Sa RN4220 lethal	0.9	-1.9	5.0	2.1	2.9
Mtb hypoxia rep	5	2	x	1	1
Mtb hypoxia rep growth	-9	8	x	-5	6

(21) CCOC(=O)C1=C(C)N=C2c3ccccc3C(=O)C2C1c1ccccc1 (configuration not stated)
(22) CCCn1c(SCCc2ccccc2)nc2c1c(=O)[nH]c(=O)n2C
(23) O=C(CNCCC1=CCCCC1)Nc1ccccc1N1CCCCC1
(24) Cc1ccc(C(=O)N2CCN(c3ccc(NC(=O)CSc4ccc(Cl)cc4)cc3)CC2)cc1
(25) COc1ccc(C(=O)NNC(=O)C2(C)CC2(Br)Br)cc1 (configuration not stated)
Assay by compound	21	22	23	24	25
Bead autofluor	4827	3372	17116*	2363	5626
PrP UTR inh	-4	9	-21	3	-18
BJeLR lethal	10	12	3	1	-3
ugtP null kill	-2	31	-38	-1	3
Sa RN4220 lethal	-0.5	6.3	8.8	3.5	4.3
Mtb hypoxia rep	x	x	0	6	1
Mtb hypoxia rep growth	x	x	0	2	19

(26) CC1(C)C(=O)Nc2ccccc2N1C(=O)COC(=O)c1cccnc1
(27) COc1ccc(/C=N/NC(=S)NCCc2ccccc2)cc1
(28) COc1ccc(/C=N/NC(=O)CNC(=O)c2ccc(S(=O)(=O)N3CCCC3)cc2)c(OC)c1
(29) N#CC(=Cc1ccc(O)c(O)c1)C(=O)NCc1ccccc1
(30) COc1nnc(-c2ccc(N3CCOCC3)c(NC(=O)C3CCCCC3)c2)c2ccccc12
Assay by compound	26	27	28	29	30
Bead autofluor	3132	4260	2476	x	3686
PrP UTR inh	-8	-10	-15	x	-7
BJeLR lethal	x	7	-4	x	14
ugtP null kill	-3	x	x	-9	5
Sa RN4220 lethal	2.5	x	x	2.5	1.8
Mtb hypoxia rep	-2	x	x	3	x
Mtb hypoxia rep growth	1	x	x	-3	x

(31) Cc1cc(C)n(C(=O)c2ccc(S(=O)(=O)N3CCCC3)cc2)n1
(32) COc1cccc(CNc2ncc(C(=O)Nc3cc(OC)c(OC)c(OC)c3)c(C)n2)c1
(33) COc1ccc(Nc2nnc(-c3ccc(C)cc3)c3ccccc23)cc1C(=O)N1CCCCC1
(34) Fc1cccc(Cl)c1CNCCCSc1ncccn1
(35) CC(C)CN(CCCNC(=O)CN1C(=O)COc2ccc(S(=O)(=O)N3CCC(C)CC3)cc21)CC(C)C
Assay by compound	31	32	33	34	35
Bead autofluor	2557	4329	2735	5860	6130
PrP UTR inh	-20	-32	-14	-9	-25
BJeLR lethal	1	43	-25	2	-9
ugtP null kill	3	-6	2	12	4
Sa RN4220 lethal	-0.1	0.5	7.2	4.5	6.3
Mtb hypoxia rep	x	-9	19	8	9
Mtb hypoxia rep growth	x	9	0	0	0

(36) O=C(C[n+]1cc(Br)cc(Br)c1)c1ccc(Cl)cc1
(37) Cc1ccc(OCCN2C(=O)OC(C)(C)C2(C)O)cc1 (configuration not stated)
(38) CN(C)C(=O)COC(=O)c1ccccc1Nc1ccc(SC(F)F)cc1
(39) CCCNC(=O)c1noc2c1CCc1ccccc1-2
(40) Cc1onc(-c2ccccc2)c1C(=O)N/N=C(\N)COc1ccc(Cl)cc1
Assay by compound	36	37	38	39	40
Bead autofluor	3666	10939	2358	5949	5874
PrP UTR inh	-11	-22	-37	-30	-9
BJeLR lethal	4	-6	18	-13	-3
ugtP null kill	14	-9	25	1	x
Sa RN4220 lethal	-2.6	-2.5	0.3	6.3	x
Mtb hypoxia rep	0	-5	7	0	x
Mtb hypoxia rep growth	5	6	3	3	x

(41) COc1ccc(NC(=O)CCN=C2NS(=O)(=O)c3ccccc32)cc1S(=O)(=O)N(C)C
(42) CCOc1ncccc1C(=O)OCC(=O)c1ccc(Cl)s1
(43) N#Cc1c(/N=C/c2cc3ccccc3s2)sc2c1CCC2
(44) CC(=O)NC1=NN(C(C)=O)C(c2ccccn2)S1 (configuration not stated)
(45) O=C(NN=Cc1cc([N+](=O)[O-])ccc1O)C1CCCCC1
Assay by compound	41	42	43	44	45
Bead autofluor	2894	3988	3275	3373	x
PrP UTR inh	-6	-13	-119	-17	x
BJeLR lethal	x	1	-4	3	x
ugtP null kill	6	4	x	15	86*
Sa RN4220 lethal	4.7	-0.8	x	12	95*
Mtb hypoxia rep	-11	x	x	1	7
Mtb hypoxia rep growth	-7	x	x	8	1

(46) O=C(Cn1ccc(NC(=O)OCc2ccccc2)nc1=O)NCCCc1ccccc1
(47) CCC(C(=O)NCc1ccccc1OC)c1ccccc1 (configuration not stated)
(48) CC(=NNC(=O)c1ccc(N2CCCC2=O)cc1)c1ccc(O)cc1O
(49) O=C(O)C1(c2ccccc2)CCN(S(=O)(=O)c2ccc(F)c(F)c2)CC1
(50) COc1ccc(-n2c(C)cc(/C=C3\C(=N)N4N=C(CC(=O)N5CCOCC5)SC4=NC3=O)c2C)cc1
Assay by compound	46	47	48	49	50
Bead autofluor	3568	3113	x	3952	5644
PrP UTR inh	-11	-19	x	-4	-14
BJeLR lethal	x	1	x	1	4
ugtP null kill	-3	2	-8	9	2
Sa RN4220 lethal	-8.1	-1.3	-5.4	7.0	2.4
Mtb hypoxia rep	-8	4	-1	1	6
Mtb hypoxia rep growth	5	7	-1	-11	7

(51) COc1ncccc1-c1nnn(-c2ccc(Cl)c(Cl)c2)n1
(52) COc1ccc(N2CCN(C(CNC(=O)c3ccc4c(c3)OCO4)c3cccnc3)CC2)cc1 (configuration not stated)
(53) Cc1cccc(N2C(=O)C3CC3C2=O)c1 (configuration not stated)
(54) COc1cccc(C2=NOC(C(=O)NC3CCCCC3)C2)c1 (configuration not stated)
(55) CCNS(=O)(=O)c1ccc(NC(=O)Nc2ccc3c(c2)OCO3)cc1
Assay by compound	51	52	53	54	55
Bead autofluor	3993	3280	2499	10640	6486
PrP UTR inh	-75	-17	-5	-26	-25
BJeLR lethal	3	4	0	-7	1
ugtP null kill	6	7	5	-5	4
Sa RN4220 lethal	4.0	15	4.5	-2.6	-0.5
Mtb hypoxia rep	10	-6	1	3	12
Mtb hypoxia rep growth	7	1	7	6	6

(56) N/C(CS(=O)(=O)c1ccccn1)=N\OC(=O)c1ccc(Cl)cc1
(57) Cn1c(=O)c2c(ncn2CC(=O)OCC(=O)Nc2cccc(Cl)c2)n(C)c1=O
(58) C/C(=N\NC(=O)Cc1ccccc1Cl)c1cccnc1
(59) CN(Cc1nccn1C)C(=O)CCc1nnc(CCC2CCCCC2)o1
(60) NC(=O)CCCC1=NS(=O)(=O)c2ccccc2N1
Assay by compound	56	57	58	59	60
Bead autofluor	5467	5369	5878	2080	9209
PrP UTR inh	-17	-18	-25	-10	-33
BJeLR lethal	-4	-6	-2	-4	-20
ugtP null kill	-2	-3	x	15	-10
Sa RN4220 lethal	4.0	3.2	x	1.0	-3.9
Mtb hypoxia rep	-14	10	x	8	-4
Mtb hypoxia rep growth	3	2	x	6	-2

Compound profiles (already shown).
Profile of C/C(=N\NC(=O)Cc1ccccc1Cl)c1cccnc1 = Bead autofluor: 5878; PrP UTR inh: -25; BJeLR lethal: -2; ugtP null kill: x; Sa RN4220 lethal: x; Mtb hypoxia rep: x; Mtb hypoxia rep growth: x
Profile of N/C(CS(=O)(=O)c1ccccn1)=N\OC(=O)c1ccc(Cl)cc1 = Bead autofluor: 5467; PrP UTR inh: -17; BJeLR lethal: -4; ugtP null kill: -2; Sa RN4220 lethal: 4.0; Mtb hypoxia rep: -14; Mtb hypoxia rep growth: 3
Profile of NC(=O)CCCC1=NS(=O)(=O)c2ccccc2N1 = Bead autofluor: 9209; PrP UTR inh: -33; BJeLR lethal: -20; ugtP null kill: -10; Sa RN4220 lethal: -3.9; Mtb hypoxia rep: -4; Mtb hypoxia rep growth: -2

Going on with the list:
(61) CC(=NNC(=O)C(=O)Nc1ccc(C)c(Cl)c1)c1ccncc1
(62) COc1ccc(-c2nc3ccccc3c(=O)n2NC(=O)c2cccnc2Cl)cc1OC
(63) C[C@]12CCC3c4ccc(OC5OC(C(=O)O)C(O)C(O)C5O)cc4CCC3C1CC(O)C2O (some centres not stated)
(64) CC(C)(C)NC(=O)C[n+]1ccc(C(N)=O)cc1
(65) CC(=O)C1=C(C)NC(SCc2cccc([N+](=O)[O-])c2)=C(C#N)C1c1ccco1 (configuration not stated)
Assay by compound	61	62	63	64	65
Bead autofluor	x	2159	x	2799	2946
PrP UTR inh	x	-14	x	-13	1
BJeLR lethal	x	-7	x	-8	3
ugtP null kill	5	3	4	2	-13
Sa RN4220 lethal	8.3	2.6	3.4	1.0	0.7
Mtb hypoxia rep	10	-6	-7	-1	-1
Mtb hypoxia rep growth	3	-3	-3	4	-1

High-throughput results deposited in PubChem by several laboratories.
